Screening results: PubChem BioAssay, National Center for Advancing Translational Sciences (NCATS)
VDR inhibitor: inhibitors of human vitamin D receptor; VDR-SRC2-3 peptide fluorescence polarization, 2 h; Potency, µM, for inactives: max response, negative = inhibition, actives largely listed as inhibitors; 400,000 tested, 0.93% active; AID 504847; active = well fitted inhibition curve with a large enough effect; inconclusive = small, poorly fitted or top-dose-only effect, or another doubt; inactive = no such curve, though single readings can be large or run the other way; note: series mostly up to about 120 µM
Target sequence (P11473 whole entry, looked up): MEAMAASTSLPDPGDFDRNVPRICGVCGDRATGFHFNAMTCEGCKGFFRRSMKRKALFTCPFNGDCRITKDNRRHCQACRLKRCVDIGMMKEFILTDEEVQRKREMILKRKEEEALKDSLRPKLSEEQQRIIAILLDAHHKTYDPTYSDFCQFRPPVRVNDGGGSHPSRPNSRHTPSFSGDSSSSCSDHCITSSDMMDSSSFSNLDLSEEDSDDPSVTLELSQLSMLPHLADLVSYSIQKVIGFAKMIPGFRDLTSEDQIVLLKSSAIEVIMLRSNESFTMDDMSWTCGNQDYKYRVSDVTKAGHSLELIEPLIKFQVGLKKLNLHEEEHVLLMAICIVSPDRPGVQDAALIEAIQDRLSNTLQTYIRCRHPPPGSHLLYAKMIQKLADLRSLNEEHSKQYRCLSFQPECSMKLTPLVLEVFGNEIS
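FP read-out; VDR + SRC2-3 coactivator peptide; 23 nl compound by pintool; 2 h RT incubation; reagents held at 4 deg C, protected from light.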
* hit, by the source's call; ? = inconclusive; [ ] = another dose, or the depositor's remark. % is set by controls: 0 for no effect and ±100 for the full control effect; potency is the fitted concentration of half-maximal effect. The list is partial, so the mix of outcomes need not match the whole.

nr | SMILES | VDR inhibitor
1 | Cc1ccc(N(CC(O)CN2CCCCC2)S(=O)(=O)c2ccccc2)cc1 (centres undefined) | -27%
2 | Cc1cccc(C(=O)NCCC(=O)Nc2ccc(C)c(F)c2)c1 | -1%
3 | CC1(OC(=O)CCc2ccccc2)C(=O)C=C2C=C(c3ccc(C#N)cc3)N(Cc3ccccc3)C=C2C1=O (centres undefined) | -10%
4 | COc1cc(/C=C2\C(=N)N3N=C(S(C)(=O)=O)SC3=NC2=O)cc(OC)c1OCCOc1cccc(C)c1 | ?
5 | O=C(COc1ccccc1[N+](=O)[O-])N(Cc1ccccc1)c1ccccn1 | 10%
6 | Cc1csc(NC(=O)c2c(-c3c(Cl)cccc3Cl)noc2C)n1 | 1%
7 | COc1cccc(Cn2c(=O)c(-c3cccs3)nc3cnc(N4CCOCC4)nc32)c1 | -19%
8 | O=C(CCCN1C(=O)/C(=C/c2ccccc2Cl)SC1=S)NNC(=O)c1ccc(Cl)cc1Cl | 7%
9 | Cc1ccc2nc(SCC(=O)OCc3ccccc3)nc(=O)n2c1 | -16%
10 | CN1CCN(C(=O)c2ccccc2-c2nc(-c3ccccc3)no2)CC1 | -4%
11 | CCN1CCN(c2cc(C)c3cc(NC(=O)c4cccnc4Cl)ccc3n2)CC1 | -7%
12 | CC/C=C/C(=O)N1CC2(CC(c3cccc(NC(=O)COc4ccc(Cl)cc4)c3)=NO2)C[C@H]1C(N)=O (some centres undefined) | 0%
13 | Cc1ccc(Nc2nc(-c3sc(NC(=O)c4ccco4)nc3C)cs2)cc1 | -6%
14 | CC1(C)CC(=O)C=C(c2cccs2)C1 | -16%
15 | CCCOc1cccc(C(=O)Nc2cccnc2)c1 | -7%
16 | CC(=O)Nc1ccc(S(=O)(=O)c2ccc([N+](=O)[O-])cc2)cc1 | 4%
17 | O=C(COc1ccc(F)c(Cl)c1)N1CCN(c2ccccn2)CC1 | 15%
18 | Cc1nn(CC2CCCCC2)c(N)c1-c1ccccc1 | 20%
19 | COc1ccc2ccccc2c1CNCc1ccccn1 | -4%
20 | CCCn1c2c(c(O)c(C(=O)Nc3nc4ccccc4s3)c1=O)CCCC2 | 4%
21 | COc1cc2c(cc1OC)C1=C(C#N)CC/C(=N\S(=O)(=O)c3cccc(Cl)c3)N1CC2 | 5%
22 | O=C(Nc1ccc(S(=O)(=O)Nc2ccccn2)cc1)c1cccc([N+](=O)[O-])c1 | -21%
23 | Cc1ccc(-n2nc(C)c3c(C)cc(=O)n(CC(=O)NC(C)C)c32)cc1 | -1%
24 | COc1ccc(N2C(=O)CC(N(Cc3ccc(S(N)(=O)=O)cc3)C(C)=O)C2=O)cc1 (centres undefined) | -5%
25 | COc1cccc(C2CC(=O)N(c3ccc(F)cc3)C3=C2C(=O)OC3)c1OC (centres undefined) | -23%

More entries follow:
nr | SMILES | VDR inhibitor
26 | Cc1ccc(C)c(NC(=S)N(Cc2ccc(Cl)cc2)Cc2ccc(C(=O)O)cc2)c1 | 23%
27 | COC(=O)[C@H](Cc1ccccc1)NC(=O)Cn1cnc(C(=O)Nc2ccc(C)c(C)c2)n1 | -25%
28 | Cn1c(SCC(=O)Nc2ccccc2O)nnc1-c1ccco1 | -10%
29 | C[C@@H]1CN([C@@H](C)CO)C(=O)c2cc(NC(=O)CCC(F)(F)F)ccc2O[C@H]1CN(C)Cc1ccc(Cl)c(Cl)c1 | 8%
30 | Cc1nc(NC(=O)c2cccs2)ccc1Br | 12%
31 | O=[N+]([O-])c1cnn(-c2nc(-c3cccs3)cc(C(F)(F)F)n2)c1 | 17%
32 | Cc1ccc(N2CC(C(=O)NC3CCSC3=O)CC2=O)cc1 (centres undefined) | -4%
33 | C/C(CCc1ccco1)=N/NC(=O)CCC(=O)Nc1cccc(Cl)c1 | -6%
34 | Cc1nc2ccc(NC(=O)/C=C/C(=O)O)cc2nc1C | -21%
35 | O=S(=O)(NCc1ccccc1)c1cccc2cccnc12 | -3%
36 | O=C(Nc1nc(=O)n(C(=O)c2cccc(C(F)(F)F)c2)s1)c1ccccc1 | 14µM*
37 | CCCCN(Cc1cc2cc(C)ccc2[nH]c1=O)C(=O)c1ccccn1 | -3%
38 | COc1cc(-n2c(=O)c3ccccc3n(Cc3cccc(F)c3)c2=O)cc(OC)c1OC | 6%
39 | CC(C)(C)c1ccc(C(=O)NC(=O)CSc2n[nH]c(N)n2)cc1 | 32%[activator]
40 | CCOc1cccc(CN2CCN(CCCc3ccccc3)C(CCO)C2)c1O (centres undefined) | -6%
41 | Cc1ccc(/C=N/NC(=O)CNC(=O)c2ccc(S(=O)(=O)N(C)C)cc2)o1 | 18%
42 | CCCN1C(=O)C(O)(CC(=O)c2ccc3c(c2)OCCO3)c2ccccc21 (centres undefined) | 2%
43 | Cc1c(Cc2ccccc2)c(=O)oc2cc(OCc3ccc(C(=O)O)cc3)ccc12 | 1%
44 | Cc1nc(N)sc1N=Nc1ccccc1C(F)(F)F | 3%
45 | CC1=CC(=O)Nc2cncnc2N1 | -20%
46 | Cc1[nH]c2ccccc2c1C1=NNC(=Nc2ccc(F)cc2)SC1 | -3%
47 | COc1cccc(-c2nc(CS(=O)(=O)CC(=O)Nc3cccc(C)c3C)c(C)o2)c1 | -1%
48 | COc1cccc(-c2cn3c(n2)sc2cc(C(=O)NC4CCCCC4)ccc23)c1 | 4%
49 | CC(C)N(Cc1nc(-c2ccc(Cl)cc2)no1)C(=O)C12CC3CC(CC(C3)C1)C2 | 12%
50 | CCCCC(=O)N/N=C/c1ccc(Sc2cccc3cccnc23)o1 | -14%

(listing goes on)
nr | SMILES | VDR inhibitor
51 | O=C(O)c1cccc2c1C(=O)c1ccccc1-2 | -8%
52 | COc1ccc(C(=O)N=c2nc(-c3ccccc3)n(-c3ccccc3)s2)cc1 | -13%
53 | C=CCN1CC2(c3ccccc3)CN(CC=C)CC(c3ccccc3)(C1)C2=O | -13%
54 | O=C(Nc1cc(Cl)ccc1Cl)Nn1cnnc1 | 6%
55 | CN1CCN(C(=O)CCNC(=O)Cn2cnc3ccccc3c2=O)CC1 | -16%
56 | C=CCn1c(C)cc(C(=O)CN2NS(=O)(=O)c3ccccc3C2=O)c1C | 12%
57 | CCOc1ccccc1C(=O)NCC(=O)NCC1CCCCC1 | -8%
58 | CSc1ccccc1OCc1cc(C(=O)NCCCc2ccccc2)no1 | ?
59 | Cc1ccc(-c2nc3cccnc3s2)cc1NC(=O)C1c2ccccc2Oc2ccccc21 | 7%
60 | O=C(O)c1ccc([N+](=O)[O-])cc1 | -11%
61 | C/C(=N/NS(=O)(=O)c1ccccc1)c1c[nH]c2ccccc12 | 4%
62 | CCCC(NS(=O)(=O)c1ccc(Br)cc1)C(=O)O (centres undefined) | -11%
63 | Cc1cc([N+](=O)[O-])nn1Cc1ccc(C(=O)N/N=C/c2ccccc2)cc1 | ?
64 | Cc1cc(C(=O)N/N=C/c2ccc(O)c(O)c2O)c(C)n1-c1ccccc1 | -21%
65 | CCN(CC)CCN1C(=O)c2ccccc2NC1c1ccc(C)cc1 (centres undefined) | -3%
66 | CC(C)N(C=O)C1(C(=O)NC2CCCCC2)CCCCC1 | 0%
67 | CN1Cc2c(N3CCOCC3)nc(SCCC#N)c(C#N)c2CC1(C)C | -14%
68 | Cc1ccc(C)c(NC(=O)c2cc3ccccc3o2)c1 | -1%
69 | CC(C)NC(=S)Nc1ccc2cn[nH]c2c1 | -7%
70 | COc1ccc(NC2CCCN(C(=O)CCCn3cncn3)C2)cc1OC (centres undefined) | -4%
71 | CCN(CC)C(c1ccc(F)cc1)c1nnnn1C1CCCCC1 (centres undefined) | 5%
72 | Cc1ccc(NC(=O)c2cnc(SCC(=O)N3CCOCC3)n(C)c2=O)cc1C | -6%
73 | COc1ccc(CN=C2Nc3ccccc3CS2)cc1 | -5%
74 | COc1ccccc1N1CCN(c2ccc(-c3nc(-c4ccccc4C)no3)cc2[N+](=O)[O-])CC1 | 6%
75 | CCc1nccn1CCC(=O)NC1CC(C)(C)Cc2c1cnn2-c1ccc(C)cc1 (centres undefined) | 6%

(next part)
nr | SMILES | VDR inhibitor
76 | O=C(c1ccncc1)N1CCC[C@@]2(CCN(c3cccc(-c4ccccc4)c3)C2)C1 | 40µM*
77 | Cc1cccc2sc(NC(=O)CSc3cn[nH]n3)nc12 | -6%
78 | O=C1C=CC(=O)N1c1ccc(Nc2ccccc2)cc1 | ?
79 | COc1ccc(C(=O)N2CCc3cc(OC)c(OC)cc3C2c2ccc(OC)c(OC)c2)cc1OC (centres undefined) | 5%
80 | c1ccc2c(c1)CCN(c1nc3cc4c(cc3s1)OCCO4)C2 | -3%
81 | CCN(CC)S(=O)(=O)c1ccc2oc(C(=O)Nc3ccc(Br)cc3F)c(C)c2c1 | 4%
82 | CCN(Cc1ccncc1)C(=O)c1cc(COc2ccc(OC)cc2Cl)on1 | -29%
83 | Cc1ccc(-c2nc(C)c(CCNC(=O)C(=O)Nc3ccc4c(c3)OCO4)s2)cc1 | 14%
84 | CCCCOc1ccc(C(=O)NCC(=O)NCCOc2ccccc2OC)cc1 | 0%
85 | N#Cc1nc(-c2ccc(COc3ccccc3)o2)oc1NCc1cccnc1 | -4%
86 | CCN(CC)CCN(C(=O)C1=COCCO1)c1nc2ccc(C)cc2s1 | 28%
87 | CCOC(=O)c1c(-c2ccc(OC)cc2)csc1NC(=O)CNCc1ccco1 | 1%
88 | S=c1[nH]nc(-c2ccc(Cl)cc2Cl)n1Cc1ccccc1 | 28µM*
89 | O=C(Cn1cncn1)NCc1cccc(OC(F)F)c1 | -10%
90 | O=C(CCCc1ccccc1)N=C1SC2CS(=O)(=O)CC2N1c1ccccc1 (centres undefined) | -7%
91 | COc1ccccc1CNC(=O)CCn1c(=O)c2ccccc2n(CC(=O)Nc2cccc(Cl)c2)c1=O | -16%
92 | CCOC(=O)C(NC(=O)c1ccc(Cl)cc1Cl)(Nc1ccc(C)cc1)C(F)(F)F (centres undefined) | 18%
93 | CC1=C(C(=O)OC(C)C)C(c2cccs2)n2ncnc2N1 (centres undefined) | 0%
94 | CC(=O)Oc1ccc2ccccc2c1C(NC(=O)Cc1ccccc1)c1ccccc1Cl (centres undefined) | -13%
95 | COc1ccc(-n2c(SCC(=O)Nc3ccc4c(c3)OCO4)nc3c(c2=O)SCC3)cc1 | -20%
96 | CC1(C)CC(c2nc(-c3ccc(Cl)cc3)cs2)CCS1 (centres undefined) | 8%
97 | O=C(CSc1nc2ccc(Cl)cc2[nH]1)NCCc1ccc(Cl)cc1 | -5%
98 | CSCC(C)N1CCC(n2nccc2NC(=O)CCCc2ccccc2)CC1 (centres undefined) | -13%
99 | C=Cc1ccc(Cn2c(=O)n(-c3cccc(Cl)c3)c(=O)c3c4c(sc32)CN(C(C)=O)CC4)cc1 | 4%
100 | Cc1ccc(C)c(N2CCN(C(=O)CCS(=O)(=O)c3ccc4c(c3)NC(=O)CO4)CC2)c1 | -3%

New compounds follow:
nr | SMILES | VDR inhibitor
101 | O=C1NNC(=O)C1c1ccccc1 | -13%
102 | CCN(CC)c1c([N+](=O)[O-])c(=O)n(C)c2ccccc12 | 5%
103 | CC(=O)c1ccc(-n2c(CCC(=O)O)ccc2-c2ccc(Br)cc2)cc1 | -11%
104 | COc1ccc(C)cc1NC(=O)C1CC1c1ccccc1 (centres undefined) | 7%
105 | Cc1ccnc(NC(=O)CCC(=O)N(CC(=O)NCc2ccc(F)cc2)Cc2ccco2)c1 | -7%
106 | COCCCn1c(=N)c(C(=O)NC2CCCC2)cc2c(=O)n3cccc(C)c3nc21 | -3%
107 | CCOc1ccccc1-n1c(SCC(=O)N2CCOCC2)nc2ccccc2c1=O | -4%
108 | COc1ccccc1NC(=O)NCCc1ccccc1 | -2%
109 | O=C(CSc1nc(-c2ccc(F)cc2)cs1)NCC1CCCO1 (centres undefined) | 5%
110 | COC(=O)Cc1ccc(N(Cc2ccccc2F)S(=O)(=O)c2ccc(Cl)cc2)cc1 | -13%
111 | CC(NC(=O)C1CC=CCC1C(=O)O)C1CC2CCC1C2 (centres undefined) | 4%
112 | Cc1ccc(CNC(=O)CCCOc2cc(=O)n(C)c3ccccc23)o1 | -16%
113 | Cc1nc(-c2ccccc2)nc2[nH]ccc(=O)c12 | 3%
114 | Cc1ccc(NC(=O)CCc2nnc3n(CC(C)C)c(=O)c4ccccc4n23)cc1C | 0%
115 | COc1cccc2cc(-c3nnc(-c4ccccc4)o3)c(=O)oc12 | 20%
116 | Cc1cn([C@@H]2C[C@H](N=[N+]=N)[C@H](CO)O2)c(=O)[nH]c1=O | -1%
117 | Cc1ccc(NC(=O)COC(=O)c2ccc(-n3nc(C)cc3C)cc2)c(F)c1 | -2%
118 | COc1ccc(NC(=S)NNC(=O)c2ccccc2OC(F)F)cc1 | 20%
119 | O=S(=O)(N/N=C/c1cccnc1)c1ccc(Cl)c(Cl)c1 | ?
120 | CCn1c(SCC(=O)N2CCCC2)nc2c1c(=O)n(C)c(=O)n2C | -11%
121 | COc1cccc(CNC(C)C(=O)Nc2ccc3c(c2)OCCO3)c1 (centres undefined) | -7%
122 | COc1ccc(-c2nn(-c3ccccc3)cc2C(=O)NCC2CCCO2)cc1 (centres undefined) | -3%
123 | CCOC(=O)c1c(SCC(=O)Nc2nc(C)cs2)nc(=O)[nH]c1C | 9%
124 | Cc1c(C(=O)N2CCC(C)CC2)oc2ccc3c(c12)C(O)CC1(CCCCC1)O3 (centres undefined) | -9%
125 | Cc1ccnc(NC(=O)c2ccccc2NC(=O)c2ccccc2)c1 | -21%
126 | CCOc1ccc(C(=O)NCC(=O)Nc2ncccc2C)cc1OCC | 6%
